# From PubChem BioAssay
# MgrA DNA FP: alters Staphylococcus aureus MgrA binding to DNA. fluorescence polarization. inhibition, %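 (about 10 µg/mL by stock and volumes)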. 84,000 tested, 0.13% active. AID 602314;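 active = above 50% in either of two replicates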;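 also: 0% = protein plus DNA without compound and 100% = DNA alone without protein; higher means less MgrA bound to DNA so lower polarization; one replicate is shown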
# Sa helicase inh: blocks Staphylococcus aureus DNA helicase; purified S. aureus helicase, fluorescence unwinding assay; about half of the hits fall short of the stated cut; inhibition, %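 (tested at about 80 µM)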; 120,000 tested, 0.05% active; AID 485395;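 active = both duplicates at 50% or more, or one of them with a favoured structure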;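 also: 0% = mean of negative control wells and 100% = mean of positive control wells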
# Numbers without * were called inactive; x = not tested or not shown. Not all compounds are listed, so the mix of outcomes need not match the whole.
SMILES,MgrA DNA FP,Sa helicase inh
CC(=O)N1c2ccc(S(=O)(=O)N3CC(=O)N(CCc4ccccc4)C(=O)C3)cc2CC1C (stereo unspecified),x,-20
O=C1CCCC2=C1C(c1ccccn1)Nc1ccc3ncccc3c12 (stereo unspecified),x,5
CC1C/C(=C/c2cccs2)C(=O)/C(=C/c2cccs2)C1 (stereo unspecified),x,9
CCC1(C)OC(=O)N(c2ccc(C)cc2)C1(C)O (stereo unspecified),x,10
O=C1c2ccccc2CC(=O)c2sccc21,34,x
Cc1cnc(NC(=O)CSc2ccc(Cl)cc2)s1,x,3
N#Cc1sc2c(c1OC(=O)c1cccs1)c(=O)n(-c1ccccc1)c(=S)n2-c1ccccc1,-0.4,x
CC(C)N(C(=O)CSc1nncn1C)c1ccccc1,-0.4,7
CC(C)c1ccc(OC(=O)C(C)N2C(=O)c3ccccc3C2=O)cc1 (stereo unspecified),-1.5,11
O=C1Nc2ccc(Br)cc2C1Cc1ccco1 (stereo unspecified),19,13
CCN(Cc1ccccc1)C(=O)CSc1nc2nc(C)c(Cc3ccccc3Cl)c(C)n2n1,0.9,4
CCOC(=O)c1[nH]cnc1C(=O)Nc1ccccc1,-0.8,-29
COc1cccc(NC(=O)N2CCNCC2)c1,x,-18
CSc1nc2ccc(NC(=O)c3cccc([N+](=O)[O-])c3)cc2s1,0.3,x
CC(=O)NC(NCc1ccccc1)(C(F)(F)F)C(F)(F)F,4.1,x
COc1cccc(CNCc2cccnc2)c1OCC(N)=O,-2.3,-1
Cc1ccc(N2CC(C(=O)NCc3ccncc3)CC2=O)cc1C (stereo unspecified),3.3,6
CCOC(=O)CSC(=S)NCc1ccc(C)cc1,-2.8,x
COCC(=O)c1[nH]c2ccccc2c1C,x,2
O=C(Nc1cccc(O)c1)c1cccc(S(=O)(=O)N2CCCCC2)c1,x,14
CCOC(=O)C1CCN(C(=O)c2sc3cc(F)ccc3c2Cl)CC1,0.0,-22
CC(Cc1ccccc1)N=c1nc2c(ncn2C)c(N)n1C (stereo unspecified),-1.4,4
N#Cc1c(Sc2ccccc2)nc2sccn12,0.8,x
COC(=O)c1ccc(Nc2ncnc3ccccc23)cc1,-1.1,0
CCN(CC)S(=O)(=O)c1ccc(C(=O)Nc2nc(-c3ccc4c(c3)OCO4)cs2)cc1,x,24
CCC1NCCc2sccc21 (stereo unspecified),0.5,-7
Nc1ncnc(Nc2cc(C(F)(F)F)cc(C(F)(F)F)c2)n1,-1.4,x
COc1cc2ncnc(NCCCN3CCOCC3)c2cc1OC,-2.7,x
CC1CCCN(C(=O)COC(=O)C2=COCCO2)C1 (stereo unspecified),x,13
Cn1c(C(=O)N2CCC(C(=O)NCc3ccccc3)CC2)cc2sccc21,0.6,13
Cn1c(=O)c2c(nc(NCCN3CCOCC3)n2C)n(C)c1=O,-0.7,17
OC(CN1CCSCC1)C(F)(F)F (stereo unspecified),0.1,x
CC(C)Cc1nn2c(=O)cc(CSc3nc(-c4ccccc4F)nc4cc(=O)[nH]n34)nc2s1,x,1
O=C(Nc1ccc2c(c1)oc1ccccc12)c1ccc2c(c1)OCCO2,0.6,x
CC(NS(=O)(=O)c1cccc2nsnc12)C(=O)OCc1csc(-c2ccccc2)n1 (stereo unspecified),x,-3
O=C1OC(Cc2ccccc2Cl)c2cc[nH]c(=O)c21 (stereo unspecified),-1.9,1
COc1ccc(CCNC(=O)c2ccccc2Cl)cc1OC,-2.2,x
Oc1cccc(/C=N/c2c(-c3ccco3)nc3ccccn23)c1,x,-31
CC(NC(=O)CN1CCN(C/C=C/c2ccccc2)CC1)c1ccccc1 (stereo unspecified),-1.9,5
CCCN(CCC)S(=O)(=O)c1ccc2c(c1)oc(=O)n2CC(=O)OCC,-1.6,3
C(=Nc1ccc(Nc2ccccc2)cc1)c1ccc2ncccc2c1,-1.9,-41
CSc1sc2c(N)nc(N)nc2c1C#N,x,12
Cc1ccc2nc(-c3ccc(NC(=O)COCC(=O)O)cc3)sc2c1,4.2,x
O=S(=O)(c1cccc2cccnc12)N(CCO)CCO,x,-6
COc1ccc(NC(=O)C2CC(c3ccc(OC)cc3)=NO2)cc1 (stereo unspecified),x,-10
O=C(NCc1ccc2c(c1)OCO2)C1CC(=O)N(Cc2ccc(F)cc2)C1 (stereo unspecified),-3.1,x
CC(NC(=O)c1ccc(C(F)(F)F)cc1)C(c1ccccc1)N1CCOCC1 (stereo unspecified),1.6,-23
Cn1c(=O)c2cc(C(=O)NC3CCCCCC3)sc2c2ccc(Cl)cc21,2.6,18
O=C(CC1CCS(=O)(=O)C1)NC1CCCCC1 (stereo unspecified),x,8
CC(=O)Nc1ccc(Nc2cc(C)c(C#N)c3nc4ccccc4n23)cc1,1.2,4
Cc1cc2cc(CNC(=O)c3ccc4c(c3)OCO4)ccc2[nH]1,x,14
CCN(CC)c1ccc(/C=C2\C(=O)NC(=S)N(c3ccccc3C)C2=O)c(OC)c1,-5.0,x
O=C(COC(=O)c1ccccc1)NC1CCCC1,-0.2,6
O=c1[nH]c(CCl)nc2scc(-c3ccccc3)c12,-0.4,-4
O=c1[nH]nc(N2CCOCC2)c(=O)[nH]1,-0.5,-2
O=C(CN(C(=O)c1ccccc1)C1CCCCC1)Nc1nc(-c2ccccc2)cs1,1.2,-1
COCCNC(=O)C1CCN(c2nnc(-n3cccc3)s2)CC1,x,13
O=C(CCC(=O)c1ccc[nH]1)c1ccc(Cl)cc1,x,-7
Cc1ccccc1-c1nsc(SCC(=O)NC2CCCCC2)n1,-0.2,-1
CNC(=O)c1c(N)sc2c1CCCCC2,1.9,2
# Going on with the list.
SMILES,MgrA DNA FP,Sa helicase inh
Cc1cccc(S(=O)Cc2ccc(C(=O)NCc3ccccc3)o2)c1 (stereo unspecified),x,7
Cc1cc2cc(CNC(=O)c3ccco3)ccc2[nH]1,x,6
O=c1c(Cl)c(Nc2ccc(F)cc2)cnn1-c1ccccc1,x,-5
COC(=O)CC1(O)C(=O)C=C(c2ccc(C)cc2)N1c1ccccc1OC (stereo unspecified),-0.8,8
CC1CCN(C(=O)COC(=O)Cn2[nH]c(=O)c3ccccc3c2=O)CC1,x,-5
CC1=C(C(=O)N(C)C)C(c2ccc(Cl)cc2)NC(=O)N1 (stereo unspecified),2.7,0
Cc1cc(C)cc(C(=O)NCC(=O)OCc2c(C)noc2C)c1,x,-9
Clc1ccc(/C=C/C2=Nc3cccc4cccc(c34)N2)cc1,2.6,7
N#CCSc1nc(-c2ccccc2)cc(=O)[nH]1,x,12
COc1ccc(C2OC(=O)CC2C(=O)NCc2ccc(F)cc2)cc1OC (stereo unspecified),x,6
O=C(c1noc2c1CCCCC2)N1CCCc2ccccc21,x,7
Cc1ccc(/C=C2\SC(=S)N(CCCCC(=O)O)C2=O)o1,x,20
O=c1[nH]nc(NCc2nc3ncccc3[nH]2)c2ccccc12,1.1,0
O=C(c1ccccc1)N1CCN(c2nc(-c3ccccc3)c3cc(Br)ccc3n2)CC1,-1.9,1
COc1ccc2nc3oc(C(=O)NCCc4ccc(Cl)cc4)cc3cc2c1,x,8
C=CCNc1nc(N)c(C(=O)c2ccc(OC)cc2)s1,6.1,24
Cc1ccc(-c2csc(N3C(=O)CN=C3SCc3ccc(Cl)cc3)n2)cc1,-0.2,-1
O=C(NC1CCCC1)c1ccc(CSCc2cccc(Cl)c2)o1,2.2,5
O=C(CCc1nc2ccccc2[nH]1)Nc1ccc2c(c1)OCCO2,x,-1
C=CCNC(=O)CN1CCC(n2nnc3cc(C(F)(F)F)ccc32)CC1,1.9,-1
CC(C)N(C)c1ncnc2sc3c(c12)CCC3,0.5,-6
CN1CCC(NS(=O)(=O)c2ccc(I)cc2)CC1,-1.2,x
CCCC(=O)Nc1ccc(C(=O)Cn2nnc(-c3cccc(F)c3)n2)cc1,x,-3
CCOC(=O)c1noc(C)c1-c1csc(COc2ccc(Cl)cc2)n1,-1.1,x
FC(F)(F)c1cccc(NN=C2CCSCC2)n1,x,-19
O=C(COC(=O)/C=C/c1ccco1)Nc1ccc(Cl)cc1,x,-8
CCN(c1ccc(OC)cc1)S(=O)(=O)c1ccc2c(c1)N(C(C)=O)CCO2,x,-24
Cc1ccccc1OCC(O)Cn1c(SC(C)C)nc2c1c(=O)[nH]c(=O)n2C (stereo unspecified),0.7,x
CCCCC1CC1C(=O)Nc1ncc2c(n1)CC(C)(C)CC2=O (stereo unspecified),3.7,-4
Cn1c(=O)c(/C(N)=N/O)cn(-c2ccccc2)c1=O,-0.1,x
N#C/C(=C\c1ccc(-c2cc(C(F)(F)F)cc(C(F)(F)F)c2)o1)C(N)=S,2.5,x
Cn1c2ccccc2c2nnc(SCC(=O)c3ccc(Cl)cc3)nc21,-0.3,10
CS(=O)(=O)N1Cc2ccccc2CC1C(=O)OCC(=O)N1CCc2ccccc21 (stereo unspecified),x,18
CC1Cc2ccccc2N1C(=O)c1cc(S(=O)(=O)N2CCCC2)cn1C (stereo unspecified),x,-22
Cc1cn2c(=O)c(C(=O)NCCCc3ccccc3)cnc2s1,x,15
N=C(N)Sc1nc(N2CCCCC2)nc(N2CCCCC2)n1,x,12
CCNc1nc(OCCO)nc(N(C)C)n1,0.4,-11
NC(=O)CN1c2cccc3cccc(c23)S1(=O)=O,4.4,1
O=c1c2c3c(sc2ncn1-n1cccc1)CCCC3,-1.0,-8
COC(=O)C1=C(C)N=C2SC(C#N)=C(N)N2C1c1ccccc1 (stereo unspecified),-2.5,-1
CC1=C(C(=O)OC2CCCCC2)C(c2ccco2)C2=C(CC(c3ccc(F)cc3)CC2=O)N1 (stereo unspecified),0.4,5
Cc1cccc(N2CCN(C(=O)CCNS(=O)(=O)c3ccc4c(c3)oc(=O)n4C)CC2C)c1 (stereo unspecified),x,27
Cc1cc(NC(=O)CC(C)C)nc2c1c(=O)oc1ccccc12,x,-20
COc1ccc(C(F)(F)F)cc1NC(=O)CC1(CC(=O)O)CCCCC1,0.0,x
COc1ccc2nc(SCc3nnc(-c4ccccc4)o3)c(C#N)cc2c1,2.5,-5
CCCC(=O)C1CCN(Cc2ccccc2)CC1,3.1,1
O=C(O)/C=C/c1cccc(Br)c1,-0.3,21
CC(c1ccccc1)N1C(=O)c2ccccc2C1=O (stereo unspecified),x,25
O=C(N/N=C/c1cn(-c2ccccc2)nc1-c1cc2ccccc2o1)c1ccncc1,x,-16
O=C1C2CCc3[nH]c4ccccc4c3C2C(=O)N1Cc1ccccc1 (stereo unspecified),4.3,-8
CC1=CC(=C(C#N)C#N)C=C(C)N1CC1CCCO1 (stereo unspecified),x,10
O=C(c1ccco1)c1cc(-c2nc3ccccc3[nH]2)c(-c2ccco2)n2c1nc1ccccc12,x,-22
Nc1c(C(=O)c2cc(F)ccc2O)cnn1-c1ccc(Cl)cc1,x,-10
Cc1nonc1OCC(C)(COc1nonc1C)NS(=O)(=O)c1ccccc1,2.2,14
Cc1ccc2c(cnn2C(=O)CCCC(=O)NC2CCCC(C)C2C)c1 (stereo unspecified),-2.7,7
CN1C(=O)CC(C(=O)NCCc2ccccc2)SC1=Nc1cccc(C(F)(F)F)c1 (stereo unspecified),-1.1,x
COc1ccccc1N1CCN(C(=O)c2cccn2C)CC1,x,-1
Cc1ccc(N2C(=NC(=O)CCC(=O)O)SC3CS(=O)(=O)CC32)cc1C (stereo unspecified),x,-16
Oc1ccc2ccccc2c1/C=N/c1ncccn1,x,-2
Cc1n[nH]c(=O)[nH]c1=O,2.5,x
# Further results follow:
SMILES,MgrA DNA FP,Sa helicase inh
CCOC(=O)Cc1csc(NC(=O)CSCC(=O)O)n1,2.7,x
COc1ccc(C(=O)Oc2ccc3oc(=O)sc3c2)cc1OC,x,1
O=c1oc(-c2cccc(C(F)(F)F)c2)nc2cccc(F)c12,-2.1,x
Cc1[nH]c(=O)c(C#N)cc1-c1ccccc1,-1.1,x
Cc1c(Cl)cccc1NC(=O)CC(NCc1ccccn1)C(=O)O (stereo unspecified),2.8,2
O/N=C(\c1ccccc1)c1nonc1/C(=N/O)c1ccccc1,x,17
CC(=O)Nc1ccccc1C(=O)O,-2.4,x
CCOC(=O)c1c(SC)nc2c(Cl)cccc2c1N(C)CCO,-0.1,x
COc1ccc(N2C(=O)NC(=O)/C(=C\c3cc(C)n(-c4cccc([N+](=O)[O-])c4)c3C)C2=O)cc1,0.6,x
